Source: PubChem (National Center for Advancing Translational Sciences (NCATS))
Rango-impB inh – qHTS Assay for Inhibitors of Rango (Ran-regulated importin-beta cargo) - Importin beta complex formation; Rango CFP/YFP FRET sensor + importin beta, 45 min; Potency, µM (doses to about 92.2 µM), for the others: top-dose inhibition of complex formation; 0.031% of 340,000 active; AID 540263, 2011; active = rising FRET ratio curve, often small or poorly fitted; inconclusive = mostly compound fluorescence or quenching in the first reads; inactive = flat curves in all reads;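 further: potency means the concentration at half of the fitted maximal effect; 0% = DMSO wells and 100% = buffer wells lacking importin beta; nearly all actives have a fitted effect of over 15% in size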
Target sequence (Q14974 whole entry, looked up): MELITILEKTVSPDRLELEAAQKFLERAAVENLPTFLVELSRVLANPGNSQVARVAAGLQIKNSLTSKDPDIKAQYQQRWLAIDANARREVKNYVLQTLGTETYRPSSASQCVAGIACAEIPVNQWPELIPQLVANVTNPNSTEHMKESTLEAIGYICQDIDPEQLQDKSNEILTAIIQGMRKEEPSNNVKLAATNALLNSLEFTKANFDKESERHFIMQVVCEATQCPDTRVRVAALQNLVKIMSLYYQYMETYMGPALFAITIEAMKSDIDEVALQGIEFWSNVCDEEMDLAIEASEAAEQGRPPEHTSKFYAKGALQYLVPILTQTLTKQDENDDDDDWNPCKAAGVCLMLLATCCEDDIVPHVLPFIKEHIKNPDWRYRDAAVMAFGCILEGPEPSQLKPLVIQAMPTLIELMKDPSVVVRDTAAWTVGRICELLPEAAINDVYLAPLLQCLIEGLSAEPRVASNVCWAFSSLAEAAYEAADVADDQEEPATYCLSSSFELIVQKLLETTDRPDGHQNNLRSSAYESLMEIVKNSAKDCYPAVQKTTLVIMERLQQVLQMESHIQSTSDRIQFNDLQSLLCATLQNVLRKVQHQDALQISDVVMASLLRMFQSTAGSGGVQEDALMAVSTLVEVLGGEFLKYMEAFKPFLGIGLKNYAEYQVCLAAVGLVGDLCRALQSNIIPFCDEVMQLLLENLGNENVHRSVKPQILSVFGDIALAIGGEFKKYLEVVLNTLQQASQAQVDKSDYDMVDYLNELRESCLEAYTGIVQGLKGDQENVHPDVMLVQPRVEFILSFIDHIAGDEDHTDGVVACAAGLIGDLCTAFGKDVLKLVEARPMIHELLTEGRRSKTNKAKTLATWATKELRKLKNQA
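Inhibition scored from the CFP 486 nm/YFP 530 nm FRET ratio 45 min after adding 0.125 microM importin beta to 50 nM Rango biosensor preincubated 5 min with compound (room temperature, PBS with DTT, Tween-20, BSA). No-importin wells as positive control.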
GLA inh pH 4.5 – qHTS Assay for Inhibitors of Human alpha-Galactosidase at pH 4.5 | 230,000 tested, under 10 active | purified enzyme, 4-MU-alpha-Gal fluorescence, pH 4.5 | activity change, negative = inhibition, % at 105 µM; inconclusive = small, poorly fitted or top-dose-only inhibition, or a rising curve; inactive = flat fitted curve, though single readings scatter; no compound was filed as active;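 further: 0% = full activity with enzyme and -100% = basal without enzyme; dose as in the result columns while the protocol names 77 µM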
Rango dissoc inh – qHTS Assay for Inhibitors of RanGTP induced Rango (Ran-regulated importin-beta cargo) - Importin beta complex dissociation; 0.071% of 340,000 active; Biochemical FRET Rango-importin beta, RanGTP-induced dissociation; Snurportin-1 (Homo sapiens) + GTP-binding nuclear protein Ran (Homo sapiens) + Importin …; Potency, µM (highest dose often 46.1 µM), without a hit: at the top dose activity change, negative = inhibition; active means falling FRET ratio curve, often poorly fitted, with flat reads before Ran was added; inconclusive means other falling curves, or compound fluorescence or quenching; inactive means flat or rising ratio curve;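 further: potency means the concentration at half of the fitted maximal effect; % of control where 0% means no effect; nearly all actives have a fitted effect of over 45% in size; -100% = wells without RanGTP and RCC1; the record marks most hits as doubtful in a second field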
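Rango FRET biosensor (snurportin-1 IBB flanked by N-terminal EYFP and C-terminal CFP10) at 0.1 uM, with 0.25 uM importin beta in PBS, 1mM DTT, 0.02% Tween-20, 0.1% BSA. 0.6 uM Ran, 2mM GTP and 0.2 uM RCC1 were then added for 45 min at room temperature. Inhibition read as loss of FRET rise.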
miR-21 reporter – qHTS Assay for Modulators of miRNAs and/orActivators of miR-21; HeLa miR-21 FLuc reporter, luciferase, 48 h; Potency, µM (series often up to 38.3 µM), inactives show at the top dose reporter change, positive = more light; 340,000 tested, under 10 active; active = well fitted rising curve with a large enough effect; inconclusive = small, poorly fitted or top-dose-only effect; inactive = no such curve, though single readings can be large or run the other way;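 further: % of control where 0% means no effect; miR-21 action dims this reporter so a rising signal means less miR-21 action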
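HeLa cells stably expressing CMV-driven firefly luciferase with a downstream miR-21 binding sequence, endogenously expressing miR-21, were treated with titrations (up to about 40uM final) for 48 hours at 37 degree Celsius. Luciferase luminescence was read after lysis.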
An asterisk follows results filed as active; ? = inconclusive; . = no result given; & = joins results of further samples. An excerpt (hit frequency here may not be typical).

Preview, 3 compounds:
Rango-impB inh	GLA inh pH 4.5	Rango dissoc inh	miR-21 reporter	mol
-2.5%	-11	-26%	0%	CC(C)(C)c1ccc(C(=O)NCCC(=O)N2CCN(c3ncccn3)CC2)cc1
1.0%	6	-15%	-3%	Cc1cccc(Cn2c(SCCN3CCCCC3)nc3c2c(=O)[nH]c(=O)n3C)c1
.	-3	.	1%	Cc1cccc(NC(=O)CSc2nnc(NC(=O)c3ccc(S(=O)(=O)N4CCOCC4)cc3)s2)c1C

The listing, previewed entries included:
Rango-impB inh	GLA inh pH 4.5	Rango dissoc inh	miR-21 reporter	mol
-2.5%	-11	-26%	0%	CC(C)(C)c1ccc(C(=O)NCCC(=O)N2CCN(c3ncccn3)CC2)cc1
1.0%	6	-15%	-3%	Cc1cccc(Cn2c(SCCN3CCCCC3)nc3c2c(=O)[nH]c(=O)n3C)c1
.	-3	.	1%	Cc1cccc(NC(=O)CSc2nnc(NC(=O)c3ccc(S(=O)(=O)N4CCOCC4)cc3)s2)c1C
0.4%	2	0%	-3%	CN(NC(=O)/C=C/C(=O)O)c1ncc(C(F)(F)F)cc1Cl
-1.0%	-3	-5%	1%	COc1ccc(NC(=O)C2CCCN2C(=O)Nc2ccccc2)cc1OC (stereo not drawn)
0.9%	4	22%	0%	C=CCC(O)(CC=C)C(C)N (stereo not drawn)
-4.0%	.	-2%	9%	Cc1ccc(O)c(C(=O)c2cnc(/N=C(\N)N(C)C)nc2)c1
0.3%	-21	-6%	-7%	Cc1ccc(C)c(-n2[nH]c3c4c(ccc3c2=O)C(=O)c2ccccc2C4=O)c1

(next part)
Rango-impB inh	GLA inh pH 4.5	Rango dissoc inh	miR-21 reporter	mol
2.6%	.	-8%	.	CSc1ncccc1C(=O)N1CCN(S(=O)(=O)c2ccc3ccccc3c2)CC1
-0.2%	-7	-9%	-34%	COc1ccc2nc(Nc3nc(-c4ccncc4)cs3)sc2c1
0.2%	15&-9	14%	-7%	COC(=O)[C@@]1(Cc2ccc(OC)cc2)[C@H]2c3cc(C(=O)N4CCCC4)n(CCSCCO)c3C[C@H]2CN1C(=O)c1ccccc1
-1.5%	0	-2%	-51%	Cc1cccc(NC(=O)CSc2nnc(-c3ccccc3C)o2)c1
-4.2%	.	-25%	.	CCc1ccccc1NC(=O)CN1CCN(CC(=O)NCc2ccc(Cl)cc2)CC1
-0.4%	-2	-14%	0%	CCCCSc1nnc(-c2ccccc2NC(C)=O)c(=O)[nH]1
-0.5%	4	6%	1%	Cn1c(O)c(N=NC(=O)Cn2c(C(F)(F)F)nc3ccccc32)c2ccccc21
-0.9%	.	0%	13%	CCC(=O)Nc1cccc(C(=O)N(Cc2ccccc2)Cc2ccccc2)c1

(cont.)
Rango-impB inh	GLA inh pH 4.5	Rango dissoc inh	miR-21 reporter	mol
-3.0%	2	-15%	0%	Cc1cc(CN(C)Cc2c(C(=O)N3CCCCCCC3)nc3ccc(Cl)cn23)n[nH]1
.	-2	.	-1%	Cn1c(=O)c2c(ncn2CCCNC2=CC(C)(C)CC(=O)C2)n(C)c1=O
-1.1%	-2	-8%	13%	Cn1ncc(Br)c1NC(=O)CSc1ccc(Cl)cc1
?	0	-9%	5%	O=C(CC1Nc2cccc3cccc(c23)NC1=O)Nc1ccccc1 (stereo not drawn)
-1.5%	.	-4%	6%	COc1ccc(S(=O)(=O)NCC(=O)N(CC(=O)NCc2ccco2)C2CCCC2)cc1
-0.7%	2	2%	-2%	O=C(COc1ccc(Cl)cc1Cl)Nn1c(=S)[nH]c2ncccc2c1=O
1.0%	.	11%	-1%	O=C(NC1CCCC1)C(c1ccncc1)N(C(=O)c1csnn1)c1cccc(F)c1 (stereo not drawn)
0.1%	-11	12%	-24%	Clc1ccc(-c2nc3ccccn3c2CN2CCOCC2)cc1

Carrying on:
Rango-impB inh	GLA inh pH 4.5	Rango dissoc inh	miR-21 reporter	mol
0.8%	-12	15%	12%	COc1cc(/C=C2\SC(=Nc3ccc(O)cc3)NC2=O)cc(OC)c1OC
-0.4%	.	1%	8%	O=C(NCCCCCCNC(=O)c1ccccc1O)c1ccccc1O
-2.4%	3	1%	-50%	CSc1ccc(-c2nc(CN(C)C3CCOC3)c(C)o2)cc1 (stereo not drawn)
8.0%	-24	-1%	-3%	COc1ccc(N2CCN(C(=N)/C(C(C)=O)=C(\C)O)CC2)cc1
-3.2%	.	-1%	.	CC1Sc2ccc(C(=O)N3CCCC(C(F)(F)F)C3)cc2NC1=O (stereo not drawn)
-1.0%	0	6%	-23%	Cn1cccc1/C=N/N1CCN(c2ccccc2)CC1
0.3%	0	4%	-25%	CSC(=NNC(=O)c1ccc(O)cc1)SC
2.5%	.	1%	-8%	CC(C)NC(=O)C1(c2ccccc2)CCOCC1

Reformatted as tab-separated lines: part of the list above
canonical_smiles	Rango-impB inh	GLA inh pH 4.5	Rango dissoc inh	miR-21 reporter
COc1ccc(N2CCN(C(=N)/C(C(C)=O)=C(\C)O)CC2)cc1	8.0%	-24	-1%	-3%
CC(C)NC(=O)C1(c2ccccc2)CCOCC1	2.5%	.	1%	-8%
CSC(=NNC(=O)c1ccc(O)cc1)SC	0.3%	0	4%	-25%
Cn1cccc1/C=N/N1CCN(c2ccccc2)CC1	-1.0%	0	6%	-23%

Additional entries
Rango-impB inh	GLA inh pH 4.5	Rango dissoc inh	miR-21 reporter	mol
1.1%	-2	-6%	-56%	Cc1cccnc1NC(=S)Nc1ccc(Br)cc1Cl
1.5%	2	-7%	-14%	CCN1C(=O)C(C)S/C1=N\S(=O)(=O)c1ccc(Cl)s1 (stereo not drawn)
0.6%	.	13%	3%	C[C@H]1[C@H]2c3nc4ccccc4n3C[C@H]1ON2C1CCCCC1
-0.2%	-7	-2%	7%	COc1ccccc1N1CCN(C(=O)c2cc(C(C)(C)C)oc2C)CC1
1.5%	-3	10%	5%	CC(=O)C1=NN(c2ccc(Cl)cc2)C(c2ccc3c(c2)OCO3)N(C(C)=O)N1C (stereo not drawn)
?	-4	?	-5%	C#CCn1cc(C=C2C(=O)c3ccccc3C2=O)c2ccccc21
?	-12	?	-6%	COc1ccc(NC(=O)c2cc3ccc4c5ccccc5[nH]c4c3cc2O)cc1
2.5%	-2	-21%	-7%	CCc1ccc(OS(=O)(=O)c2cn(C)c(=O)n(C)c2=O)cc1

Carrying on.
Rango-impB inh	GLA inh pH 4.5	Rango dissoc inh	miR-21 reporter	mol
0.4%	.	12%	-30%	Cc1ccc(-c2nnc(COC(=O)c3cccs3)o2)cc1
0.6%	5	1%	-5%	Cc1sc(NC(=O)CN2CCOCC2)c(C(=O)c2ccccc2)c1C
?	-2	?	-3%	Cc1ccnc(-n2sc3ccccc3c2=O)n1
-0.8%	5	3%	1%	N#CC1(P(=O)(c2ccccc2)c2ccccc2)CC1
-1.6%	-5	8%	-1%	CCOC(=O)C1CCCN(C2CC(=O)N(c3ccc(C)c(C)c3)C2=O)C1 (stereo not drawn)
-0.7%	3	-14%	5%	CCCCn1c(-c2csc3c2CCCC3)n[nH]c1=S
-4.1%	-15	4%	-4%	CCOC(=O)C1=C(C)NC(=O)NC1c1ccc(OC(C)C(=O)O)c(OC)c1 (stereo not drawn)
-3.4%	.	-10%	-10%	CC1(C)Cc2c(sc(NC(=O)C(=O)N3CCCC3)c2C(=O)O)CO1

(listing goes on)
Rango-impB inh	GLA inh pH 4.5	Rango dissoc inh	miR-21 reporter	mol
1.2%	.	53%	.	O=C(c1ccc(Cl)c(S(=O)(=O)N2CCOCC2)c1)N(Cc1ccco1)Cc1cccs1
0.2%	-4	10%	-12%	CC1CCCN(S(=O)(=O)Cc2ccc(Cl)cc2)C1 (stereo not drawn)
?	?	?	-4%	CC1=C(C(=O)OC(C)C)C(c2cccnc2)C2=C(CC(C)(C)CC2=O)N1 (stereo not drawn)
-0.7%	.	13%	-3%	C[C@@H](C(=O)Nc1ccc2c(c1)OCO2)n1c(=O)[nH]c2ccccc2c1=O
-1.7%	.	-25%	-14%	O=c1c2ccccc2cnn1Cc1ccc(Br)cc1F
1.2%	-6	-4%	-21%	C/C(CC(=O)Nc1c(C)cc(C)cc1C)=N\NC(=O)c1cnccn1
2.3%	4	6%	-15%	CCOc1cc(C2Nc3ccccc3C(=O)N2c2ccccc2OC)ccc1O (stereo not drawn)
-0.8%	-7	8%	-4%	CC(=O)N1CC(=O)N(Cc2ccccc2)/C(=C/c2ccccc2)C1=O

(more compounds)
Rango-impB inh	GLA inh pH 4.5	Rango dissoc inh	miR-21 reporter	mol
0.0%	1	16%	-6%	CC(C)OCCCNC(=S)N1CCC(C(=O)c2ccc3c(c2)OCCO3)CC1
-7.6%	-10	-7%	15%	CN(C)S(=O)(=O)c1cccc(NC(=O)CSc2nc3ccccc3[nH]2)c1
-1.1%	3	-8%	-20%	O=[N+]([O-])c1cc(Oc2cccnc2)cc([N+](=O)[O-])c1
1.9%	-7	-2%	-7%	CCn1nc(C(=O)NCc2ccco2)c(Cl)c1Cl
-1.4%	.	0%	-1%	CN(C(=O)CSc1nnc(CNC(=O)c2ccccc2)o1)c1ccccc1
4.0%	.	-1%	.	COc1cccc(CN(C)C(=O)Cc2ccc(OC)c(S(=O)(=O)N3CCOCC3)c2)c1
-3.3%	.	?	-42%	CCc1ccc(CN(C)C(=O)c2cc(COc3ccc(OC)cc3Cl)on2)nc1
-1.0%	-13	-8%	-16%	COc1cc(N=Nc2c(C)n(C)n(-c3ccccc3)c2=O)ccc1N

Later entries.
Rango-impB inh	GLA inh pH 4.5	Rango dissoc inh	miR-21 reporter	mol
5.0%	.	2%	2%	CC(C)(C)C(=O)COC(=O)C1=NN(c2ccccc2)C(=O)CC1
0.0%	-20	7%	-1%	Cc1cccc(COCC(Cc2ccccc2)N2CCN(C(=O)c3cccc(Cl)c3)CCC2=O)c1 (stereo not drawn)
0.4%	.	2%	1%	CCC(C)[C@H](NC(=O)N1CC(=O)Nc2ccccc21)C(=O)N[C@H](Cc1c[nH]c2ccccc12)C(=O)O (stereo partly drawn)
-5.2%	.	4%	5%	COc1cccc(NC(=O)C2CCN(C(=O)[C@@H]3Cc4ccccc4CN3C(=O)OC(C)(C)C)CC2)c1
3.3%	-6	3%	7%	COc1ccc(CCNC(=O)c2ccc(CNc3nc(=S)[nH]c4ccccc34)cc2)cc1OC
-0.5%	.	-8%	.	CCN(CC)CC1CN(N=Cc2ccc([N+](=O)[O-])o2)C(=O)O1 (stereo not drawn)
-3.1%	-16	33%	-23%	COc1ccc(-c2nnc(SCc3nc4ccccc4c(=O)[nH]3)o2)cc1
?	.	?	-56%	CN(C)Cc1c(O)ccc2cc(-c3nc4ccccc4n3C)c(=O)oc12

(cont.)
Rango-impB inh	GLA inh pH 4.5	Rango dissoc inh	miR-21 reporter	mol
1.0%	-1	8%	-6%	O=C(O)/C=C/C(=O)Nc1ccc(F)cc1F
-3.1%	.	-8%	-3%	COC(=O)CSc1nc2ccccc2c(=O)n1Cc1ccccc1
3.1%	0	30%	-46%	CCCCCC(=O)Nc1ccc(-c2csc(C)n2)cc1
-4.2%	-2	-12%	2%	COc1ccc(NC2=CC(=O)CC(c3ccccc3)C2)c(OC)c1 (stereo not drawn)
-0.2%	-7	7%	-9%	Cn1c(=O)[nH]c(=O)c2c1nc(SCC(=O)Nc1ccccc1)n2Cc1ccccc1
0.7%	.	?	-4%	CCCc1c(C(=O)N/N=C/c2cccc3ccccc23)nnn1-c1nonc1N
-1.5%	.	-3%	4%	Cc1ccc(C)c(S(=O)(=O)N2CCCOC2CNC(=O)C(=O)NCCc2ccccc2)c1 (stereo not drawn)
-0.2%	.	-6%	.	Cc1cc(F)ccc1S(=O)(=O)NCC(c1ccc2c(c1)OCO2)N1CCOCC1 (stereo not drawn)
0.1%	.	-17%	11%	CCC(C)c1ccc(C(CC)NC(=O)C2CCCO2)cc1 (stereo not drawn)
5.1%	-9	-5%	-9%	Cc1ccc(C)c(NC(=O)COc2cccc3c2CCN(Cc2ccccc2)C3=O)c1
4.8%	0	4%	-5%	C#CCOC(=O)Nc1cccn(Cc2c(Cl)cccc2Cl)c1=O
